High-throughput results from PubChem.
AF4-AF9 inh: inhibitors of human MLL-AF4/AF9 interaction. AID 651704. P42568. inhibition, % at 10 µM. hit rate 0.47% among 350,000. AlphaScreen, biotin-AF4 peptide binding to FLAG-AF9;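 active means every replicate reaching a set inhibition limit, whatever the replicate mean, cut at about 25% in these data; inconclusive means mean inhibition reaches that limit but some replicates miss it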;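 further: 0% = plate neutral control median and 100% = total signal loss; the record names both 10 and 1 µM as test concentration; the first replicate is given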
ALR H2O2 inh: inhibitors of human sulfhydryl oxidase ALR. P55789. purified ALR, DTT oxidation, H2O2 HRP-luminol luminescence. inhibition, % (test concentration not listed). hit rate 3.8% among 290,000;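 active means mean and each replicate at 75% or more; inconclusive means only one of the two met; inactive means neither met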;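 further: stock transfer was 7.5 nL into about 7.5 µL; 0% = neutral wells and 100% = wells with inactivated enzyme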
Target sequence (P55789 whole entry, looked up): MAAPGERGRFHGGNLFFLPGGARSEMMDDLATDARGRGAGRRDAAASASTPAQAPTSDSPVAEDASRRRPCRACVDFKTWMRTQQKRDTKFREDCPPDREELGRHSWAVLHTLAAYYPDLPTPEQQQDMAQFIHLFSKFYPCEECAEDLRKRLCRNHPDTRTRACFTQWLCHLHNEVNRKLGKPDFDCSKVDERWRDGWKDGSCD
Ecoli growth: E. coli growth inhibition; Escherichia coli growth, OD600, 23 h; active compounds read low; OD600 absorbance (test concentration not listed); hit rate 0.21% among 330,000;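 active means OD600 absorbance below the run mean of sample wells minus 3.6 SD, in any replicate, cut at about 0.56 in these data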;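 further: stock transfer was 300 nL into about 60 µL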
HNF4A DNA FP: change in binding of human HNF4 alpha to DNA; HNF4a-FITC DNA binding, fluorescence polarization, 1 h; activity change, % at 10 µM; hit rate 0.3% among 360,000; AID 1224865; in the data active means activity change above about 30%, passing the limit was not always enough;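 further: controls were the assay level and a saturating level of protein; the project sought stronger binding though the title names inhibitors; some compounds called inactive have numbers as strong as hits; positive values seem to mean higher polarization but the record does not say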
Target sequence (P41235 whole entry, looked up): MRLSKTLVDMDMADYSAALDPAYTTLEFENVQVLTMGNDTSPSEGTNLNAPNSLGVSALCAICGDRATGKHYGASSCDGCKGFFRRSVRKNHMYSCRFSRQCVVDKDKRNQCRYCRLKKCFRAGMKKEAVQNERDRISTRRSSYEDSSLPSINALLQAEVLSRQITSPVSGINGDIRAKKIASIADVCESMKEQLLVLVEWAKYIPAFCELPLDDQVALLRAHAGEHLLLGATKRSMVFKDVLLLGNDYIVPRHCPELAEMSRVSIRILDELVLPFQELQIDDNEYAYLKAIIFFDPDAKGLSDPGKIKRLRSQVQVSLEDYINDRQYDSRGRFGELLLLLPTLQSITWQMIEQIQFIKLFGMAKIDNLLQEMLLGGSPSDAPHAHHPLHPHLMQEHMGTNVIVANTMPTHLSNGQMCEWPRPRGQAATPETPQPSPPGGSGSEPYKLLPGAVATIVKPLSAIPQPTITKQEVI
FGF22 binding: FGF22 (human) thermal shift binding. Q9HCT0. recombinant FGF22 thermal shift, SYPRO orange fluorescence; percent of sucrose octasulfate shift, DMSO zero. calls only at 9.99 µM. hit rate 1.5% among 340,000;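 active means melting point raised past a set limit in the mean and every replicate; inconclusive means no clear call; three in four hits are not shown here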
Target sequence (Q9HCT0 whole entry, looked up): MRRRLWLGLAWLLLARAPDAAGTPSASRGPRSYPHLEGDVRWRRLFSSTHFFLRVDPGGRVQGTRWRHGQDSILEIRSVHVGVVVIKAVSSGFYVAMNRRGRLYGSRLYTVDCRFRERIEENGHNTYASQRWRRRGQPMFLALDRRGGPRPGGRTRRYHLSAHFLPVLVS
Vif A3G: HIV-1 Vif–A3G interaction blockers – biochemical, TR-FRET, GST-Vif 1-94, biotin-A3G peptide, dose response retest, primary screen (AID 1117319); TR-FRET GST-Vif / biotin-A3G peptide binding; higher % means a stronger effect; test concentration not given here; strong numbers were not always called active; inhibition, %, or IC50 in µM where a hit was titrated; hit rate 0.57% among 260,000;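 active means above the screen mean plus three standard deviations and confirmed in dose response; inconclusive means results disagree or hit not tested in dose response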;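 further: Vif residues 1-94 fused to GST binding biotinylated APOBEC3G peptide 110-148; 0% = full assay without inhibitor and 100% = GST in place of GST-Vif; retest series ran down from 100 µM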
rRNA inh HTS: inhibitors of bacterial rRNA selective over humanized ribosomes. GFP signal change (wild-type ribosome), % (no concentration beside the values). AID 720706. hit rate 1.6% among 350,000. E. coli WT GFP vs humanized-ribosome RFP mutants, fluorescence, 24 h; active compounds read low; DMSO median 0, no signal -100;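 active means significant combined selectivity score with lowered wild-type GFP, culture density cut under 30%, mutant RFP and density less affected; inactive means any of these conditions unmet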; further: one replicate is shown; some compounds called inactive have numbers as strong as hits
rRNA inh HTS OD600: further read-out of rRNA inh HTS, marked with its call; OD600 change, %; measured here: OD600 growth;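 optical density of the mix in the first replicate; 0 = DMSO median and -100 = no signal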
rRNA inh HTS RFP: recorded beside rRNA inh HTS, whose call it bears; RFP signal change, %; measured here: RFP humanized mutant strains;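 first replicate; 0 = DMSO median and -100 = no signal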
Numbers without * were called inactive; i = inactive; ? = inconclusive; . = not tested or not shown. Not all compounds are listed; count on the stated rates, not on these rows.

SMILES	AF4-AF9 inh	ALR H2O2 inh	Ecoli growth	HNF4A DNA FP	FGF22 binding	Vif A3G	rRNA inh HTS	rRNA inh HTS OD600	rRNA inh HTS RFP
C[C@H](O)C#Cc1ccc2c(c1)O[C@H](CN(C)C(=O)CC1CC1)[C@@H](C)CN([C@H](C)CO)S2(=O)=O	2.1	.	.	.	i	.	-4	6	-3.7
COCc1ccc(CN2CCC(Oc3ccc(C(=O)NCc4ccccn4)cc3)CC2)o1	0.8	-11	0.7	-2.6	i	.	4	-3	0.8
C[C@@]12C(=O)N(Cc3ccco3)CC(=O)N1[C@H]1c3cc(Cl)ccc3OC[C@@H]1[C@@H]2c1ccccc1	-3.9	1	.	-8.6	i	.	5	-3	-2.1
Cn1c(=O)c2ncn(CC(=O)Nc3ccc(N4CCOCC4)cc3)c2n(C)c1=O	.	16	0.67	0.9	.	16%	.	.	.
OCCCc1cn(-c2ccccc2)c2ccccc12	3.0	.	0.7	1.7	i	6%	-39*	-11*	-7.3*
O=C(COC(=O)c1cc(=O)[nH]c2ccccc12)Nc1nc(-c2ccc(F)cc2)cs1	-4.3	.	0.69	-2.0	i	.	6	2	5.5
CCCNC(=O)c1cc(C2CCCCN2C(=O)CCc2ccccc2)on1 (centres undefined)	1.0	.	.	0.6	i	.	8	9	-1.2
CC1=C(C(=O)N2CCCCCC2)CC(CC(=O)NCCc2ccccn2)C(=O)N1CCC1=CCCCC1 (centres undefined)	-0.2	.	.	-0.5	i	.	.	.	.
CCOc1ccc(CCNC(=O)Cc2ccc(NC3=NC4CS(=O)(=O)CC4S3)cc2)cc1OCC (centres undefined)	0.1	-2	0.68	-0.4	i	.	10	14	-2.7
COCCN(C(=O)c1snc(C(N)=O)c1N)C(C(=O)NC1CCCCC1)c1cc(OC)c(OC)c(OC)c1 (centres undefined)	-2.2	-8	0.62	2.1	i	.	16	2	-3.3
COCC(=O)Nc1ccc2c(c1)OC[C@@H](C)N(C)C[C@@H](C)[C@@H](OC)CN(C)C2=O	-0.1	.	.	.	i	.	-2	3	-2.4
C[C@H](CO)N1C[C@H](C)[C@H](CN(C)S(=O)(=O)c2cn(C)cn2)Oc2ccc(NC(=O)Nc3ccc(C(F)(F)F)cc3)cc2C1=O	3.4	.	.	.	i	.	-5	-2	-1.0
CC(NC(=O)c1ccc([N+](=O)[O-])o1)C1CC2CCC1C2 (centres undefined)	.	-18	0.66	-2.9	.	-1%	.	.	.
COc1cccc(-c2nc(CSCC(=O)N3CCc4ccccc43)c(C)o2)c1	.	44	0.71	2.3	.	27%	.	.	.
C=CCN=C(NC#N)SCC(=O)c1cccc(OC)c1	-0.8	14	0.72	2.6	i	-3%	-16	-12	5.5
O=C(NN1C(=O)/C(=C/c2ccc(O)c([N+](=O)[O-])c2)SC1=S)c1ccccc1Cl	-0.2	10	0.7	28	.	-10%	-22*	-17*	-3.5*
O=C(Nc1cccnc1)C1Cc2c(-c3cccc(F)c3)ccnc2O1 (centres undefined)	-3.0	.	.	4.2	i	.	-5	-16	3.5
O=C(Cn1cc(CCO)nn1)N1CCNCC1	-39	-10	0.69	-5.2	i	3%	1	-6	-0.8
Cc1ccc(S(=O)(=O)N(C)C[C@@H]2Oc3ccc(NC(=O)CCCCCC(=O)Nc4ccccc4N)cc3C(=O)N([C@@H](C)CO)C[C@H]2C)cc1	-0.6	.	.	.	i	.	-4	0	0.1
CCOC(=O)c1ccc(NC(=O)CSc2nc(SC)ns2)cc1	.	.	0.62	8.1	.	-4%	.	.	.
Cc1ccc(NC(=O)COC(=O)c2cccc(OC(F)F)c2)cc1S(=O)(=O)N1CCCCC1	-0.7	-2	0.67	-3.2	i	7%	-2	3	3.3
C[C@@H]1CN([C@H](C)CO)S(=O)(=O)c2ccc(C#C[C@@H](C)O)cc2O[C@@H]1CN(C)CC1CCOCC1	-1.7	.	.	.	i	.	4	1	-5.3
CC(C)OC(=O)CSc1nc2ncccc2[nH]1	.	-2	0.68	1.1	.	?	.	.	.
CC(=O)Oc1ccc(OC(C)=O)c2c1C1C=CC2CC1	0.0	.	.	-1.4	i	23%	4	10	6.9
NNC(=O)c1ccc(COc2ccc3c(c2)CCC3)cc1	12	46	0.63	3.2	i	11%	-26*	-14*	-7.2*
Cc1cc(C(=O)N2CCN(c3ncccn3)CC2)c2cc(F)ccc2n1	-3.0	-4	0.74	-1.4	i	0%	6	7	9.2
Cc1csc(NC(=O)CSc2nnc(-c3ccncc3)n2C)n1	.	-2	0.63	3.4	.	-6%	.	.	.
NC(=O)COc1ccc2cc(-c3ccc(F)cc3)c(=O)oc2c1	-2.0	1	0.66	-0.9	i	.	6	5	-9.0
CCNC(=O)[C@H]1[C@H](CO)[C@H]2Cn3c(ccc(-c4ccc(OC)cc4)c3=O)[C@@H]1N2S(C)(=O)=O	-1.1	.	.	.	i	.	5	3	-3.5
CN(C[C@H]1[C@H](c2ccccc2)[C@@H](CO)N1C(=O)c1ccccc1)C(=O)C1CCC1	-1.7	.	.	.	i	.	-3	-10	-1.0
C[C@@H]1CN([C@@H](C)CO)C(=O)c2cc(C#CC3(O)CCCC3)cnc2O[C@@H]1CN(C)C(=O)C1CCOCC1	-1.2	.	.	.	i	.	1	10	-2.8
CCOC(=O)N1CCC(NC(=O)CS(=O)(=O)Cc2nc(-c3ccccc3Cl)oc2C)CC1	1.2	19	0.62	0.9	i	.	2	7	-3.9
O=C(O)C(Cc1ccc(Cl)cc1)Sc1nc2ccccc2[nH]1 (centres undefined)	-4.5	-9	0.65	0.0	i	-3%	2	2	-1.5
COc1ccc(OC)c(-n2c(C)cc(/C=C3\C(=N)N4N=C(CC(=O)N5CCOCC5)SC4=NC3=O)c2C)c1	2.1	-7	0.68	5.3	i	0%	7	7	4.1
CCOC(=O)C1=C(C)NC(=S)NC1c1ccc(OCC(=O)N2CCCCCC2)c(OC)c1 (centres undefined)	2.7	-14	0.61	-1.4	i	.	.	.	.
Cc1ccc(S(=O)(=O)NC(=O)Nc2ccccc2)cc1	-2.5	1	0.67	1.6	i	10%	18	11	3.8
O=C(N[C@H]1CC[C@H](CC(=O)N2CCN(c3ccccc3)CC2)O[C@@H]1CO)c1ccccc1	-0.4	.	.	.	i	.	-1	3	0.9
Cc1ccccc1N1CCN(C2CCCN(C(=O)CCN3CCCCO3)C2)CC1 (centres undefined)	0.0	16	0.74	-3.2	i	-7%	9	9	1.0
C/C(=N/NC(=O)c1cccs1)c1cccc(NC(=O)C2CC2)c1	.	-2	.	-0.1	.	4%	.	.	.
COc1ccc(CC(=O)OCC(=O)c2ccc(S(=O)(=O)N3CCCCC3)cc2)cc1	-2.5	1	0.68	1.0	i	6%	14	6	0.5
O=C1C=C(c2cccc(Cl)c2)C[C@@H](c2ccc(F)cc2)C1	.	-9	0.72	0.9	.	.	.	.	.
CC1(C)CC(=O)C2=C(C1)N(CCN1CCOCC1)C1=C(C(=O)CC(C)(C)C1)C2c1ccc(Cl)c([N+](=O)[O-])c1	1.4	1	0.68	-3.0	.	-2%	-7	-4	-3.3
CCCC#Cc1cnc2c(c1)C(=O)N([C@H](C)CO)C[C@H](C)[C@H](CN(C)C(=O)C1CC1)O2	-2.7	.	.	.	i	.	1	1	-0.4
COc1ccc(/C=C/C(=O)OCC(=O)NC2CCCC(C)C2C)cc1 (centres undefined)	-1.4	-1	0.73	0.4	i	.	.	.	.
O=C(Cn1cncn1)NCc1ccc(Cl)cc1	.	-35	0.72	2.1	.	-1%	.	.	.
CCOc1c2ccc(C(=O)NCc3ccc(C)cc3)cc2nn1CC	-6.1	-1	0.76	-4.4	i	1%	-11	-1	0.1
C[C@@H]1CN([C@H](C)CO)C(=O)Cc2cc(NC(=O)Cc3cn(C)c4ccccc34)ccc2O[C@H]1CN(C)C(=O)Nc1ccc2c(c1)OCO2	3.5	.	.	.	i	.	-1	6	-1.0
C/C(CC(=O)Nc1ccc(C)c(Cl)c1)=N\NC(=O)c1ccccn1	1.7	-2	.	-3.8	i	.	1	3	0.3
O=C(NCc1nnc(SCC(=O)N2CCOCC2)o1)c1cccs1	-1.7	-3	0.67	-1.5	i	2%	11	14	3.2
O=C(COC(=O)c1ccc(F)cc1Cl)NC1CCS(=O)(=O)C1 (centres undefined)	1.2	.	0.65	3.0	i	-2%	24	24	3.0

Part of the list above in order of length of the SMILES, low to high.
SMILES	AF4-AF9 inh	ALR H2O2 inh	Ecoli growth	HNF4A DNA FP	FGF22 binding	Vif A3G	rRNA inh HTS	rRNA inh HTS OD600	rRNA inh HTS RFP
O=C(NCc1nnc(SCC(=O)N2CCOCC2)o1)c1cccs1	-1.7	-3	0.67	-1.5	i	2%	11	14	3.2
CCCC#Cc1cnc2c(c1)C(=O)N([C@H](C)CO)C[C@H](C)[C@H](CN(C)C(=O)C1CC1)O2	-2.7	.	.	.	i	.	1	1	-0.4
CC1(C)CC(=O)C2=C(C1)N(CCN1CCOCC1)C1=C(C(=O)CC(C)(C)C1)C2c1ccc(Cl)c([N+](=O)[O-])c1	1.4	1	0.68	-3.0	.	-2%	-7	-4	-3.3

Continuation:
SMILES	AF4-AF9 inh	ALR H2O2 inh	Ecoli growth	HNF4A DNA FP	FGF22 binding	Vif A3G	rRNA inh HTS	rRNA inh HTS OD600	rRNA inh HTS RFP
CC12CCC(=O)N1C(C(=O)N1CCN(S(=O)(=O)c3ccccc3F)CC1)CS2 (centres undefined)	-19	-1	0.64	1.2	i	1%	2	8	0.1
O=C(NCc1ccco1)c1ccc(Cn2c(=O)c3sccc3n(Cc3ccc(F)cc3)c2=O)cc1	3.3	25	0.8	2.1	i	-14%	0	-8	4.3
Cc1ccc(C)c(N2C(=O)CC(Cc3ccc(Cl)cc3)C2=O)c1 (centres undefined)	-3.4	-1	0.65	-3.8	i	-1%	-21	-36	2.0
COC(=O)[C@]12CCCCC=C1N(Cc1ccc3c(c1)OCO3)C(=O)[C@H](CC(=O)NCc1ccc(OC)c(OC)c1)C2	2.5	.	.	4.1	i	.	-22	-19	11
Cc1ccc2nc(-c3ccc(NS(=O)(=O)c4ccc(F)c(F)c4)cc3)sc2c1	.	16	0.68	9.0	.	.	.	.	.
O=C(COC(=O)COc1ccc2ccccc2c1)Nc1cc(C(F)(F)F)ccc1N1CCOCC1	-1.1	-25	0.66	-1.0	i	.	2	6	1.4
COc1ccc(C=C2Cc3ccccc3C2=O)cc1	-3.2	.	.	2.3	i	.	-1	-7	-3.3
COc1ccccc1CN(C)C(=O)COC(=O)c1cc(C)oc1C	2.8	.	0.63	-1.5	i	2%	-3	-1	-1.1
O=C(Nc1ccc(Cl)c(Cl)c1)c1cccc(S(=O)(=O)NCc2cccnc2)c1	.	-3	0.58	-3.4	.	.	.	.	.
Cc1ccc(NC(=O)C2CCN(S(=O)(=O)c3cnc[nH]3)CC2)cc1C	.	.	0.64	-2.2	.	8%	.	.	.
CC(=O)NCCC(Cc1ccccc1)c1ccco1 (centres undefined)	.	2	0.71	-4.1	.	18%	.	.	.
Cc1cc(C)c2nncn2n1	3.2	-5	0.7	3.6	.	?	6	6	-3.7
O=C(Nc1ccccc1)c1cccc(S(=O)(=O)Oc2ccc([N+](=O)[O-])cc2)c1	2.7	-3	0.7	-0.1	i	.	-16	-12	-0.7
CCCC#Cc1cnc2c(c1)C(=O)N([C@@H](C)CO)C[C@@H](C)[C@H](CN(C)S(=O)(=O)c1ccccc1)O2	1.2	.	.	.	i	.	-4	-17	3.5
NS(=O)(=O)c1ccc(CCNc2ccccc2[N+](=O)[O-])cc1	5.9	-8	0.64	1.6	i	.	-7	-12	-0.9
